Autofluor counter: flagged as autofluorescent in microsphere protease counterscreen. compound autofluorescence counterscreen, microsphere flow cytometry; active compounds read high. fluorescence intensity (concentration not given with the values). hit rate 3.1% among 360,000. AID 624483;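 active = at least 3 SD above the mean of all compounds, about 16000 in these data; inconclusive = too few beads counted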;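 note: 100 nL of 1 mM stock went into each well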
PrP UTR inh: inhibition of PrP 5' UTR reporter expression | cell-based PrP 5' UTR mRNA reporter, plate reader | inhibition, % (test concentration not listed) | hit rate 0.35% among 340,000;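 active = every replicate at 50% or more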;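 note: 0 = median of the neutral control wells; tested in H4 reporter cells; numbers are from one replicate; inactives centre near -14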
Mtb hypoxia inh: inhibitors of hypoxia-regulated fluorescent reporter in Mycobacterium tuberculosis; M. tuberculosis hypoxia-regulated fluorescent reporter, fluorescence; fluorescence inhibition, % (no concentration beside the values); hit rate 0.1% among 300,000; AID 1159583;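 active = 35 to 45% if threefold the growth effect, above 45% if 1.5-fold the growth effect; inactive = the rest, general growth blockers included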;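 note: wells of about 50 µL received 100 nL stock; 0% = vehicle wells and 100% = reference inhibitor wells; whole bacteria with a GFP reporter of the hypoxia response; strong numbers were not always called active; many hits fall short of the cut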
ugtP null kill: kills S. aureus RN4220 lacking UgtP | S. aureus RN4220 ugtP deletion, OD600 growth, 16 h; some inactives read as strong as hits | growth inhibition, % (no concentration beside the values) | hit rate 0.54% among 330,000;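 active = z-score under -3 and OD600 up to 0.15 on both plates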;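 note: plate controls were untreated wells for no effect and antibiotic for full effect; wells of about 80 µL received 100 nL stock; the first replicate is given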
Sa RN4220 lethal: S. aureus RN4220 growth inhibition | OD600, 16 h | inhibition, % (no concentration beside the values) | hit rate 0.33% among 330,000 | AID 1259311;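 active = z-score of -3 or lower and OD600 up to 0.18 on both plates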;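 note: plate controls were untreated cells for no effect and reference antibiotic for full effect; stock transfer was 100 nL into about 80 µL; one replicate is shown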
BJeLR viability: BJeLR cell viability loss; AID 1554; inhibition, % (no concentration beside the values); hit rate 0.17% among 300,000; BJeLR (HRASV12) viability, CellTiter-Glo ATP luminescence, 48 h; reference of the scale not given here;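 active = replicate mean above 50%; inconclusive = above 50% but judged a plate artefact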;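 note: 50 nL library stock added to about 25 µL; numbers are from one replicate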
Mtb hypoxia inh growth: further read-out of Mtb hypoxia inh, marked with its call; growth inhibition, %; measured here: M. tuberculosis growth (absorbance);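 0% = vehicle and 100% = reference antibiotic; read after six days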
* marks the source's active call; other numbers are inactive results; ? = inconclusive; nt = no result given. Rows are unselected, and some 4.1% of all compounds hit somewhere here.

SMILES | Autofluor counter | PrP UTR inh | Mtb hypoxia inh | Mtb hypoxia inh growth | ugtP null kill | Sa RN4220 lethal | BJeLR viability
CC(=NNC(=O)C(C)Sc1ccccc1)c1ccc([N+](=O)[O-])cc1 (stereo unspecified) | nt | nt | 0 | 1 | -2 | 3.4 | nt
O=C(O)CSCc1nc2cccnc2n1C1CCCCC1 | 3195 | 0 | -2 | 1 | 4 | -3.3 | -2
CN(C)c1ccc(C=NNc2cc(N3CCOCC3)nc(N3CCOCC3)n2)cc1 | nt | nt | -4 | 4 | 9 | 3.8 | nt
O=[N+]([O-])c1cccc(-c2ccc(C=NNC(=S)Nc3ccccc3)o2)c1 | nt | nt | -9 | 6 | -14 | 24 | nt
Cc1nc(NC(=O)CSc2cc(C)c3ccccc3n2)c(Cl)cc1Cl | 2018 | -20 | 11 | 3 | -17 | 31 | 1
C=CCNC(=O)c1ccccc1NS(=O)(=O)c1ccc(OC)c(C(=O)N2CCOCC2)c1 | 3002 | -10 | -6 | -7 | 14 | 2.4 | -11
CCOC(=O)C1CCN(S(=O)(=O)CCNC(=O)c2ccccc2)CC1 | nt | -21 | 5 | 11 | 8 | 0.6 | 4
CCCCn1c(N)c(N(CCC(C)C)C(=O)COC(=O)c2ccc(CC)cc2)c(=O)[nH]c1=O | 7752 | 1 | 4 | 3 | 18 | 8.7 | nt
CC(C)N(CC#CCC(O)(c1ccccc1)C1CCCC1)CCO (stereo unspecified) | 2495 | -33 | 8 | 10 | 5 | 7.5 | 3
OC(CCN1CCC2CCC(C2)C1)c1ccc(Br)cc1 (stereo unspecified) | 2963 | 10 | -4 | -2 | -3 | 0.8 | nt
CCC(Oc1ccccc1)C(=O)Nc1ccc(S(=O)(=O)Nc2cc(C)on2)cc1 (stereo unspecified) | 4670 | 6 | 0 | 6 | 9 | -1.4 | -1
Cc1nc2nc(-c3cccs3)[nH]c2cc1Br | nt | -79 | 15 | 15 | -8 | 3.1 | 10
COC(=O)CCNc1ccc2c(c1)OCCO2 | 2408 | 12 | 20 | -23 | 6 | 13 | 0
CN(C#N)c1nccc(-c2cccs2)n1 | 2278 | -11 | 13 | 10 | -3 | 4.7 | -1
CNC(=O)NC(=O)C(C)OC(=O)c1cc2c(s1)CCCCC2 (stereo unspecified) | 3158 | -14 | 4 | 2 | 9 | 3.7 | -8
CC(C)(C)C(=O)/C=c1\s/c(=C\c2ccc(-c3ccc([N+](=O)[O-])cc3)o2)c(=O)n1CC(=O)NC(N)=O | 15877 | -13 | nt | nt | nt | nt | 8
COc1ccc(C(=O)c2ccc(N3CCOCC3)cc2)c(OC)c1 | nt | 8 | nt | nt | -2 | 3.6 | 8
COc1cc(C(=O)OCC(=O)NC23CC4CC(CC(C4)C2)C3)cc(OC)c1OC | nt | -53 | 7 | 2 | -1 | 0.6 | nt
Cc1ccc(-c2cnc(C3CC3)o2)cc1S(=O)(=O)Nc1ccccc1 | 4683 | -19 | 2 | -9 | 7 | 3.8 | 17
CC(CNCc1ccc2c(c1)OCO2)NCc1ccc2c(c1)OCO2 (stereo unspecified) | 6044 | -14 | 1 | 4 | 5 | 3.0 | -4
COc1ccc(OC)c(CNc2ccc3c(c2)CCC3)c1 | 7490 | -18 | nt | nt | nt | nt | 0
CCCCSc1nc(C)cc(SCC(=O)N/N=C/c2ccccc2)n1 | 4177 | -11 | nt | nt | nt | nt | 2
Cc1ccc(C2=NN(C(=O)CSc3nc(N)cc(N)n3)C(c3ccco3)C2)cc1 (stereo unspecified) | 2146 | -4 | 6 | 7 | -5 | 4.0 | -6
CCOc1ccc(S(=O)(=O)NCC2(N3CCCCC3)CCCCC2)cc1 | nt | -5 | -4 | -5 | 3 | 2.3 | nt
CSc1nnc(-c2cc(-c3ccc(C)cc3)nc3ccccc23)o1 | 9731 | -27 | 11 | 3 | 0 | 13 | 0

The closing five compounds of the part before lead into the next.
SMILES | Autofluor counter | PrP UTR inh | Mtb hypoxia inh | Mtb hypoxia inh growth | ugtP null kill | Sa RN4220 lethal | BJeLR viability
COc1ccc(OC)c(CNc2ccc3c(c2)CCC3)c1 | 7490 | -18 | nt | nt | nt | nt | 0
CCCCSc1nc(C)cc(SCC(=O)N/N=C/c2ccccc2)n1 | 4177 | -11 | nt | nt | nt | nt | 2
Cc1ccc(C2=NN(C(=O)CSc3nc(N)cc(N)n3)C(c3ccco3)C2)cc1 (stereo unspecified) | 2146 | -4 | 6 | 7 | -5 | 4.0 | -6
CCOc1ccc(S(=O)(=O)NCC2(N3CCCCC3)CCCCC2)cc1 | nt | -5 | -4 | -5 | 3 | 2.3 | nt
CSc1nnc(-c2cc(-c3ccc(C)cc3)nc3ccccc23)o1 | 9731 | -27 | 11 | 3 | 0 | 13 | 0
NC(=O)CSCc1nc2ccccc2s1 | 3220 | -12 | nt | nt | -8 | 5.3 | 5
O=C(Cn1cnc2cc([N+](=O)[O-])ccc2c1=O)NC(=O)NCc1ccccc1 | 5265 | -13 | -5 | 7 | 16 | 2.7 | 6
COc1ccc(OCC(O)Cn2cnc(-c3ccc(Br)cc3)c2)cc1 (stereo unspecified) | 4085 | -20 | nt | nt | 9 | 9.9 | 13
COc1ccc(-c2nnc(SCC(=O)NCc3ccco3)n2C)cc1 | ? | -32 | 4 | 4 | 3 | 0.0 | -5
S=C(NCc1ccco1)N1CCN(c2nc(-c3ccccc3)cs2)CC1 | 4706 | -29 | 1 | 8 | -6 | 16 | -6
COc1cc(C(=S)N2CCC(C)CC2)ccc1O | 5903 | -22 | 5 | 9 | 8 | 6.0 | 2
c1ccc2c(c1)nc(NCC1CCCO1)c1nnnn12 (stereo unspecified) | 5955 | -19 | -2 | 1 | 8 | 1.3 | 4
CCc1ccccc1NC(=O)C1=CC(c2cccs2)=NS(=O)(=O)N1C | 6336 | -27 | 4 | 9 | -2 | 0.7 | -3
COc1ccc(SC[C@H](Cc2ccccc2)N2CC[C@@H](C)CCC2=O)cc1 | 4172 | -13 | 12 | 1 | -7 | -12 | nt
CCCCc1nnc(NC(=O)c2ccc3[nH]c(=O)c(=O)[nH]c3c2)s1 | 4525 | -10 | 5 | -3 | 1 | -1.8 | 3
CCOC(=O)c1ccc(CN(Cc2ccccc2)S(=O)(=O)c2cccc([N+](=O)[O-])c2)cc1 | 2087 | -17 | 1 | 5 | 14 | -2.7 | 4
N#Cc1c(NC(=O)CSc2nc(-c3ccco3)cc(C(F)(F)F)n2)sc2c1CCCC2 | 2956 | -8 | nt | nt | 4 | 0.4 | nt
COc1ccc(Cn2c(SCc3ccc(C)cc3)nc3cc(OC)c(OC)cc3c2=N)cc1Cl | 16606* | -7 | 6 | 14 | 99* | 100* | 5
COc1ccc(C(=O)CSc2nnc(CNc3ccc(C)cc3C)o2)cc1 | 4390 | -26 | 9 | 3 | 2 | 4.4 | -3
Clc1ccccc1CSc1ncn(-c2ccccc2)n1 | 21905* | -73 | -13 | 14 | -40 | -1.2 | 3
N#CC1=C(N)Oc2c(c(=O)sc3ccccc23)C1c1cccnc1 (stereo unspecified) | 4579 | -14 | -11 | -12 | 6 | -0.7 | -11
C=CCn1c(C(C)NC(=O)c2cccs2)n[nH]c1=S (stereo unspecified) | 2573 | -10 | -2 | 5 | -1 | 3.4 | 8
CNC(=S)Nc1ccc(Nc2ccccc2)cc1 | 10703 | nt | 14 | 31 | -4 | 6.0 | 9
NC(=O)c1ccc(NS(=O)(=O)c2ccc3ccccc3c2)cc1 | 3574 | -36 | -4 | 3 | 11 | 0.8 | -2
CCOc1ccccc1N(CC(=O)NCc1ccco1)C(=O)CCC(=O)Nc1nccs1 | 3641 | -29 | 2 | 3 | 12 | 0.6 | 0
CC1(C)CC(=O)C(=Cc2cn(-c3ccccc3)nc2-c2ccc(Cl)cc2)C(=O)C1 | 3175 | -15 | -8 | -2 | -9 | -5.4 | 7
Cc1ccc(S(=O)(=O)N(C)C)cc1NC(=O)COC(=O)c1ccc2c(c1)OCCO2 | 4426 | 2 | -4 | -4 | 13 | 7.0 | 2
Cc1c(Cl)c([N+](=O)[O-])nn1CCCC(=O)NC1CCCCC1 | 4018 | -18 | -3 | 4 | -1 | 4.1 | 8
CCN(CC)C(=O)CSc1nnc(COc2ccccc2)n1CC | 2800 | -18 | 20 | -22 | -8 | -21 | 6
Cn1c(=O)[nH]c2c(Cl)nccc21 | 4436 | -6 | -1 | -4 | -2 | 1.3 | 0

Rewritten with two lines to a compound: entries from further up.
Sequence of screens – Autofluor counter, PrP UTR inh, Mtb hypoxia inh, Mtb hypoxia inh growth, ugtP null kill, Sa RN4220 lethal, BJeLR viability
- S=C(NCc1ccco1)N1CCN(c2nc(-c3ccccc3)cs2)CC1
    4706, -29, 1, 8, -6, 16, -6
- CNC(=S)Nc1ccc(Nc2ccccc2)cc1
    10703, nt, 14, 31, -4, 6.0, 9

The results go on:
SMILES | Autofluor counter | PrP UTR inh | Mtb hypoxia inh | Mtb hypoxia inh growth | ugtP null kill | Sa RN4220 lethal | BJeLR viability
CN(C(=O)c1ccc2c(c1)CCO2)C(C)(C)C | ? | nt | -1 | -1 | -7 | 2.2 | 2
Cn1c(-c2ccc([N+](=O)[O-])cc2)nc2ccccc21 | 4360 | -30 | 3 | 5 | 2 | 5.1 | 2
CC(C)CCn1c(Br)nc2c1c(=O)n(CC(N)=O)c(=O)n2C | 10075 | -3 | -12 | -3 | -5 | -1.6 | 7
Cc1cccc(Oc2sc(C(=O)c3ccccc3)c(N)c2C#N)c1 | 2941 | -7 | nt | nt | -16 | -1.0 | -12
Cc1nc2n[nH]c(N)c2c2c1CCCC2 | 3969 | -9 | 2 | 3 | 2 | 6.9 | 5
CC(=O)Oc1ccc(NC(=O)CSc2ccccc2)cc1 | 7906 | nt | 14 | 0 | 13 | 4.2 | 2
O=S1(=O)C=C(Sc2nc3ccccc3s2)c2ccccc21 | nt | nt | nt | nt | 91* | 54 | 56*
Cn1cnnc1SCNC(=O)C(F)(F)F | 11780 | -8 | 6 | 2 | 4 | 3.4 | -13
CCC(=O)c1ccc(OCC(O)CN2CCN(S(=O)(=O)c3ccc(NC(C)=O)cc3)CC2)cc1 (stereo unspecified) | 3956 | -7 | -2 | 4 | 10 | 4.1 | 2
C=CCN1C(=O)CSc2ccc(C(=O)N3CCC(C)CC3)cc21 | 10475 | nt | 1 | 5 | 0 | 9.2 | -16
O=CN1Cc2ccccc2-c2ccccc2C1 | 3395 | -11 | 11 | 12 | 16 | 2.4 | 7
CN1Cc2ccccc2N(CC(=O)NCc2ccccc2)C1=O | 3807 | -13 | -9 | 0 | 4 | 13 | 5
Cc1ccc2nc(Cn3cc(C(F)(F)F)ccc3=O)cc(=O)n2c1 | 4587 | -17 | -6 | 4 | 1 | -1.4 | -10
COc1ccc(N2CCN(C(=O)c3ccc(CSc4ccccc4)cc3)CC2)cc1 | 2200 | -16 | -5 | 5 | -7 | -1.1 | -2
N[C@@H](Cc1c[nH]c2ccccc12)c1nnc(SCc2ccc(F)cc2)o1 | 24676* | -22 | 14 | 5 | 1 | 4.2 | -14
CCCCC[C@@H](/C=C/C1C(=O)C=C[C@H]1C/C=C\CCCC(=O)OC)OC(C)=O (stereo partly specified) | 3499 | -27 | -6 | 8 | 2 | 0.7 | nt
COc1ccccc1NC(=O)c1cc(N)cc(C(=O)Nc2ccccc2OC)c1 | 5499 | -2 | 8 | 14 | 4 | 3.0 | -1
COc1ccc(C(C(=O)NC2CCCCC2)N(C(=O)Cc2c[nH]c3ccccc23)c2ccccc2C)cc1OC (stereo unspecified) | 2324 | -12 | -2 | 5 | 2 | -1.7 | 2
COc1ccc(S(=O)(=O)N2CCCCC2)cc1NC(=O)c1c(F)cccc1Cl | 5568 | 6 | 10 | -11 | 6 | 0.7 | nt
CC1CCCCC1NC(=O)CNC(=O)c1cccs1 (stereo unspecified) | ? | 0 | -2 | 1 | 4 | 1.5 | 5
Cc1ccccc1NS(=O)(=O)c1ccc(C(=O)NCC(c2ccco2)N2CCCCC2)cc1 (stereo unspecified) | 5997 | -23 | -1 | 10 | 1 | -3.7 | 10
CC(C)c1ccc(NC2CCCN(C(=O)c3ccco3)C2)cc1 (stereo unspecified) | 5645 | -26 | -5 | -1 | -1 | 3.2 | -1
Cc1[nH]c2c(Br)cccc2c1[C@H]1[C@@H](CC#N)C1(C)C | 3092 | -12 | nt | nt | -51 | 4.9 | 2
COc1cc(/C=N/n2c(-c3n[nH]c4c3CCC4)n[nH]c2=S)cc(OC)c1O | 4260 | -25 | nt | nt | nt | nt | 6

High-throughput results from PubChem BioAssay.
